Resorufin autofl = resorufin region autofluorescence. max dye-equivalent concentration, M. AID 588. 59,000 compounds, 0.04% hits. Compound fluorescence, resorufin region 547/598 nm, buffer; active compounds read high; active = above 10 nM dye equivalent; inconclusive = 1 to 10 nM; inactive = 1 nM or less; a few of its hits are not listed in these tables; note: highest value over a series up to 38 µM
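Dye-equivalent concentration values derive from comparing each well's 547/598 nm fluorescence against resorufin standards included on every plate. Incubation was 15 min at room temperature in 100 mM Tris, pH 8.0.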
A647 autofl = compound fluoresces in the A647 spectral region. Compound fluorescence, A647 channel (570/671 nm), Tris buffer. max dye-equivalent concentration, M. 59,000 tested, under 10 active; active means above 1 µM dye equivalent; inconclusive means 0.1 to 1 µM; inactive means 0.1 µM or less;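 note: values scaled relative to a standard on each plate; highest value over a series up to 38 µM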
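Fluorescence read (570 nm ex, 671 nm em) after 15 min RT incubation of compounds in 100 mM Tris buffer, pH 8.0; values expressed as dye-equivalent concentration against a six-point A647 standard series on each plate.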
AID923 = qHTS Assay for Allosteric/Competitive Inhibitors of Caspase-1: Spectroscopic Profiling in AFC Spectral Region | Potency, µM (doses to about 57.5 µM), inactives show top-dose fluorescence increase, hits mostly activators | 75,000 compounds, 1.1% hits | AID 923, 2007 | compound fluorescence, AFC spectral region (405/520 nm); almost no hit is shown here; active = well fitted activation curve with a large enough effect; inconclusive = small, poorly fitted or top-dose-only effect;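 note: potency is the fitted concentration of half-maximal effect; 0% is about no effect; scaled to a free AFC standard on each plate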
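Baseline compound fluorescence (AFC region, 405 nm ex/520 nm em) taken from the intercept of kinetic reads with 50 nM caspase-1 and 5 uM Ac-WEHD-AFC; normalized to an on-plate AFC standard curve; compounds titrated up to 57 uM.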
A488 autofl = compound autofluorescence in A488 spectral region | compound autofluorescence, A488 spectral region, dye equivalency; active compounds read high | max dye equivalency, M | 59,000 compounds, 0.1% hits; active = above 10 nM dye equivalent; inconclusive = 1 to 10 nM; inactive = 1 nM or less; about half of its hits are not listed in these tables;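 note: highest value over a series up to 38 µM; compound alone in buffer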
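Read-out: relative fluorescence at 480/540 nm, expressed as Alexa 488 dye-equivalent concentration from a six-point A488 standard included per plate. Conditions: 100 mM Tris, pH 8.0; 15 min incubation, room temperature.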
TSHR agonist = TSH receptor (human) agonism. HEK293-CNG-TSHR cells (CNG channel as cAMP sensor), membrane potential dye, cAMP. Potency, µM (doses to about 57.1 µM), for inactives: top-dose activation, actives largely listed as activators. 73,000 compounds, 0.48% hits. AID 926; active = well fitted activation curve of enough size with the parental cells flat; inconclusive = any curve in the parental cells; inactive = parental cells flat and receptor cells flat or falling; note: potency is the fitted concentration of half-maximal effect; % of control where 0% means no effect; weak receptor curves with flat parental cells got no call and are not listed
Target sequence (P16473 whole entry, looked up): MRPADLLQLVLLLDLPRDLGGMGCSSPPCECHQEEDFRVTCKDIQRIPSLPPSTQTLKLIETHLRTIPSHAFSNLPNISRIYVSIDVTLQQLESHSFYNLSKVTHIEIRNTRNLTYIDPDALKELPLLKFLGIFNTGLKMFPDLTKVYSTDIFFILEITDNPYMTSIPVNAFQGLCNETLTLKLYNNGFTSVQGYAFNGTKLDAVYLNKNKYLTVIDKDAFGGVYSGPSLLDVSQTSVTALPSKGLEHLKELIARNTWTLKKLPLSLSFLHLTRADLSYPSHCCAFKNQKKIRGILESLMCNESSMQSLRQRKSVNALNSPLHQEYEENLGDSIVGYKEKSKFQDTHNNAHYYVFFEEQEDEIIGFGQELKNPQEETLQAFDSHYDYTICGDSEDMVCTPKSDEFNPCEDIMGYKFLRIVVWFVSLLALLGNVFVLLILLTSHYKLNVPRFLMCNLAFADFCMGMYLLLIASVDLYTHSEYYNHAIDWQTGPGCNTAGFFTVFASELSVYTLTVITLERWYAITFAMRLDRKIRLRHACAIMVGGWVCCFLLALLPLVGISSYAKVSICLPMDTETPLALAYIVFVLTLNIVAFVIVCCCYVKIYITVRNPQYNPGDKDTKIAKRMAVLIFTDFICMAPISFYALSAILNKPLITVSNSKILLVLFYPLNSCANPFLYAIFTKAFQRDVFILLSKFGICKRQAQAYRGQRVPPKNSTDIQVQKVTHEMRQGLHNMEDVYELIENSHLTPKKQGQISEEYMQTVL
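cAMP rise detected as CNG-channel membrane depolarization by fluorescent dye (emission 590 nm), 30 min after compound, following 60 min dye loading containing 100 uM RO 20-1724 at room temperature. Cells: TSHR/CNG HEK 293, with parental CNG HEK 293 as control.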
The depositor's hits bear a star; i = inactive; ? = inconclusive; / = no result given; [ ] = another dose, or the depositor's remark. Not all compounds are listed (hit frequency here may not be typical).

Molecule,Resorufin autofl,A647 autofl,AID923,TSHR agonist,A488 autofl
O=C(O)CCc1nc(-c2ccccc2)no1,i,1e-09,1.0%,6.0%,i
COC(=O)C(C(=O)OC)=C(/C=C/N(C)C)N(C)C,/,/,2.9%,3.7%,/
COc1ccc(NC(=O)c2nnn(Cc3ccc(SC)cc3)c2N)c(OC)c1,/,/,1.0%,10.8%,/
Cc1ccc(/C=c2\s/c(=C(/C#N)C(=O)N3CCCC3)n(Cc3ccco3)c2=O)s1,i,1.09e-08,4.5%,-2.6%,?
O=C(CSCc1cccs1)N1CCCC1,/,/,-0.4%,-4.1%,/
C=CCn1cnc2c(c1=O)c1nc3ccccc3nc1n2/N=C/c1cccc(OC)c1,i,1e-09,1.7%,-7.9%,i
CCc1c(C)sc(NC(=O)c2cccs2)c1C(=O)OC(C)C,/,/,16.9%,0.5%,/
c1ccc(-c2ccc(-c3nc(-c4ccncc4)no3)cc2)cc1,/,/,-0.3%,-7.5%,/
Brc1ccc(C2=Nn3c(nnc3-c3ccncc3)SC2)cc1,i,1e-09,0.1%,11.0%,i
COc1ccc(C2=NOC3(CC(=O)N(c4ccc(C)cc4)C3=O)C2)c(OC)c1 (configuration not stated),i,3.12e-08,0.3%,/,i
COc1cc(NC(=O)CCn2c(=O)[nH]c3ccsc3c2=O)cc(OC)c1,i,1.3e-09,-1.5%,?,i
O=C(Nc1nccs1)C1CCN(S(=O)(=O)c2cnc[nH]2)CC1,i,1e-09,0.2%,2.0%,i
CC1C2C(c3ccccc3)N(C)C(=O)N(C)C2N(C)C(=O)N1C (configuration not stated),i,2.5e-09,6.7%,?,i
Cc1ccc(-n2nnnc2SCc2nnc(-c3ccccc3Br)o2)cc1,i,3.5e-09,1.1%,?,i
CCC(=O)N1CCc2cc(S(=O)(=O)NC(C(=O)NC(C)c3ccccc3)C(C)C)ccc21 (configuration not stated),i,1e-09,0.7%,-0.1%,i
Cn1ccnc1Sc1nc2c(c(=O)n(C)c(=O)n2C)n1C,i,1e-09,2.0%,0.3%,i
COc1cc(C(c2sc3nc(C)nn3c2O)N2CC(C)CC(C)C2)cc(OC)c1OC (configuration not stated),/,/,4.0%,?,/
CC1CCC(C(C)C)C(OC(=O)CSc2n[nH]c(=O)[nH]c2=O)C1 (configuration not stated),i,5.3e-09,-1.7%,20µM*,i
CCOC(=O)c1cc(-c2ccccc2)sc1N,i,1e-09,-0.6%,14.4%,i
Cc1ccc2c(c1)c(C)c(C)n2CC(O)CN1CCCCC1C (configuration not stated),/,/,0.3%,?,/
COc1ccccc1Nc1ncnc2ccccc12,i,1e-09,0.6%,1.8%,i
Cn1c(SC2C(=O)CC(C)(C)CC2=O)nnc1-c1ccco1,i,3.83e-08,1.5%,-3.4%,i
CC1=C(C(=O)NCc2ccccc2)C(c2ccccc2OCC(N)=O)NC(=O)N1 (configuration not stated),i,2.16e-08,2.8%,6.3%,i
CCOc1cc(NC(=O)c2cnccn2)c(OCC)cc1NC(=O)c1ccc(OC)cc1,i,3.4e-09,0.1%,-7.1%,i
COc1ccc(S(=O)(=O)NCCSCc2ccco2)cc1,i,2.4e-09,3.8%,-0.2%,i
COCc1nc2ccccc2n1CCCOc1ccccc1,i,1e-09,-1.1%,?,i
C1=CCC(/C=N/n2cnnc2)CC1 (configuration not stated),i,1e-09,0.4%,-0.4%,i
C=CCn1c(SCC(=O)Nc2ccc(N(C)C)cc2)nnc1-c1cccc(C)c1,i,1e-09,1.9%,0.8%,i
CCn1c(=O)c(-c2ccccc2)c(O)c2ccccc21,i,1e-09,1.0%,7.4%,i
O=C(NC1CCCCC1)N1CCN(Cc2nc3ccccc3c(=O)[nH]2)CC1,i,7e-09,0.2%,2.5%,i
CCOc1ccc(N2C(=O)CC(SCCN)C2=O)cc1 (configuration not stated),i,9.4e-09,-0.2%,-4.2%,i
COc1cc(C(C)=O)ccc1OCC(=O)c1cc(C)n(C2CC2)c1C,i,9.5e-09,-0.1%,9.2%,i
c1ccc(-n2c(-c3ccncc3)nnc2-c2ccco2)cc1,i,1.78e-08,1.5%,10.3%,i
COc1ccc(/C(O)=C2/C(=O)C(=O)N(CCN3CCOCC3)C2c2cccnc2)cc1OC (configuration not stated),i,1.81e-08,/,/,i
CNC(=O)c1ccccc1-c1ccccc1,i,1e-09,-0.6%,3.8%,i
CCOc1ccc(-c2nnn(CC(=O)Nc3cc(OC)cc(OC)c3)n2)cc1OCC,i,9e-09,1.4%,6.5%,i
COC(=O)C1=C(C)N(C)C(C)=C(C(=O)OC)C1c1ccc(C(=O)OC)cc1,/,/,-0.7%,?,/
O=C(CSc1nnc(-c2c[nH]c3ccccc23)o1)N(Cc1ccccc1)c1ccc(F)cc1,i,1e-09,-2.5%,2.3%,i
O=C(NC1CC1)c1ccc(CS(=O)(=O)c2c(Cl)cccc2Cl)o1,/,/,3.7%,2.9%,/
O=C1CC(c2ccco2)CC(O)=C1C=Nc1cc(Cl)ccc1O (configuration not stated),i,4.03e-08,/,/,i
O=C(Nc1ccc(-n2cnnn2)cc1)C1CCC1,i,1e-09,-1.5%,0.2%,i
CCCCOC(=O)C1=C(C)Nc2ncnn2C1c1cccc(OC)c1 (configuration not stated),i,5.5e-09,-3.0%,5.6%,i
CCOc1cc(CNc2ncc(-c3ccc(OC)cc3)n2C)ccc1O,i,3.82e-08,0.2%,-36.7%[inhibitor],i
Cc1ccc(SCCC(=O)N(C)C)cc1,i,3.72e-08,-1.4%,-4.4%,i
C/C=C(\C)CN1CCc2cc(OC)c(OC)cc2C1,i,2.39e-08,2.0%,7.8%,i
N#CCCN(CCC#N)c1nnc(-c2ccccc2)s1,i,1.58e-08,/,/,i
CCCCNS(=O)(=O)c1ccc2nc(SCC(=O)c3ccc(C#N)cc3)[nH]c2c1,i,3e-09,3.1%,1.8%,i
Cc1cc(C(C)(C)C)ccc1OCCN(C)C,/,/,0.3%,3.7%,/

Another view of part of the listing above.
Values run as follows: Resorufin autofl, A647 autofl, AID923, TSHR agonist, A488 autofl
COc1ccccc1Nc1ncnc2ccccc12
→ i, 1e-09, 0.6%, 1.8%, i
O=C(NC1CC1)c1ccc(CS(=O)(=O)c2c(Cl)cccc2Cl)o1
→ /, /, 3.7%, 2.9%, /
CCCCOC(=O)C1=C(C)Nc2ncnn2C1c1cccc(OC)c1 (configuration not stated)
→ i, 5.5e-09, -3.0%, 5.6%, i
CC1C2C(c3ccccc3)N(C)C(=O)N(C)C2N(C)C(=O)N1C (configuration not stated)
→ i, 2.5e-09, 6.7%, ?, i
O=C(NC1CCCCC1)N1CCN(Cc2nc3ccccc3c(=O)[nH]2)CC1
→ i, 7e-09, 0.2%, 2.5%, i

(cont.)
Molecule,Resorufin autofl,A647 autofl,AID923,TSHR agonist,A488 autofl
CCOC(=O)c1ccc(NC(=O)CS(=O)(=O)c2cn(CC)c3ccccc23)cc1,i,2.6e-09,0.3%,10.7%,i
O=C1NC(NS(=O)(=O)c2ccccc2)(C(F)(F)F)C(=O)N1Cc1cccnc1 (configuration not stated),i,1e-09,-0.6%,-3.1%[11.4 µM],i
Cc1noc(C)c1-c1nc(Nc2ccncc2)c2ccccc2n1,i,1e-09,-0.1%,-3.4%,i
C=C1CC23C[C@H]4[C@@H]5[C@@]6(C)C[C@H](OC(=O)c7ccccc7)[C@@H](OC(C)=O)[C@]57[C@@H]2[C@@H](OC(C)=O)[C@H]1[C@@H](O)[C@H]3[C@H]7N4C6,i,1e-09,0.9%[25.7 µM],-3.2%[25.6 µM],i
COc1ccccc1NC(=O)CSc1ccc2nnc(-c3ccccn3)n2n1,/,/,-1.0%,?,/
O=C(CSc1ncnc2c1nnn2-c1ccc(F)cc1)NCC1CCCO1 (configuration not stated),/,/,0.1%,4.0%,/
CCN(CC)S(=O)(=O)c1ccc(F)c(C(=O)NCCC(C)C)c1,i,2.1e-09,2.7%,?,i
CCCc1cc(N2CCCC(C(=O)NCc3ccc4c(c3)OCO4)C2)n2ncnc2n1 (configuration not stated),i,1.4e-09,0.7%,5.7%,i
CCOCC(=O)Nc1nc2ccc(S(C)(=O)=O)cc2s1,i,1e-09,0.9%,0.9%,i
O=S(=O)(c1cnccc1N1CCN(CCO)CC1)N1CCCC1,i,2.56e-08,-0.5%[11.5 µM],6.5%[11.4 µM],i
CC(=NCC1CCCO1)c1c(O)[nH]c(=O)[nH]c1=O (configuration not stated),i,1.62e-08,0.4%,0.4%,i
Cc1ccc(NC(=O)CSc2nnc(-c3cnccn3)n2Cc2ccco2)cc1C,i,4.4e-09,0.4%,2.2%,i
CCCCCc1c(C)nc(NCc2ccccc2)[nH]c1=O,i,2.72e-08,-2.1%,-0.2%,i
CCCc1nnc(NC(=O)c2c(O)c3cccc4c3n(c2=O)CCC4)s1,i,1.85e-08,-1.0%,?,i
O=C(CSc1ncnc2ccccc12)N1CCCC1,/,/,0.3%,1.6%,/
COC(=O)c1ccc(-c2nc3ccccc3o2)cc1,i,1e-09,-0.6%,-4.9%,i
COc1ccc(Nc2nc(Nc3ccc(OC)cc3)nc(-n3[nH]c(=O)c(C)c3C)n2)cc1,i,7.2e-08,/,/,i
COc1ccc(F)cc1S(=O)(=O)N1CCC(C(N)=O)CC1,i,1.56e-08,0.2%,-0.3%,i
CCOc1ccc(-c2nc(C#N)c(N3CCN(CC)CC3)o2)cc1,i,1e-09,/,/,i
CCOC(=O)Cc1csc(SCC(=O)c2c(N)n(CC(C)C)c(=O)n(C)c2=O)n1,i,2.5e-08,-0.2%,?,i
CCCc1cc(C(=O)N2CCN(c3ccccc3C)CC2)cs1,i,2.18e-08,0.4%,-6.8%,i
Cc1cc(C)c(-c2cc(C(F)(F)F)no2)c(=O)[nH]1,i,1e-09,0.3%,-2.6%,i
O=C(CN1C(=O)c2ccccc2S1(=O)=O)N1CCc2ccccc2C1,i,4.4e-09,-1.3%,3.0%,i
O=C(CSc1nnc(NC(=O)c2ccco2)s1)NC1CCCCC1,i,1e-09,-0.6%,-1.3%,i
COc1ccc(CNC(=O)CN(C(=O)c2cc3sccc3n2C)C2CCCC2)cc1,i,1e-09,-0.5%,/,i
COc1ccc(OC)c(NC(=O)CSc2nnc(CNC(=O)c3ccco3)o2)c1,i,2.71e-08,-1.8%,0.2%[11.4 µM],i
c1ccc(OCc2nc3ccccc3[nH]2)cc1,i,1e-09,0.9%,/,i
CCOC(=O)C1CCCN(C(=O)c2cn(CC)c(=O)c3cc(OC)c(OC)cc23)C1 (configuration not stated),i,1.53e-08,2.0%,6.6%,i
Clc1ccc(C(c2nnnn2C2CCCC2)N2CCSCC2)cc1 (configuration not stated),i,1.3e-09,-1.9%,?,i
CO[C@H]1COC(=O)[C@H]2CCCN2C(=O)C/C=C\[C@@H](C)[C@H](OC)COC(=O)C/C=C\[C@@H]1C,/,/,-0.1%[11.5 µM],1.6%[11.4 µM],/
COc1cc(C2C(C(=O)Nc3ccccc3OC)=C(C)Nc3ncnn32)ccc1O (configuration not stated),/,/,3.0%,2.1%,/
O=P(O)(CCCCP(=O)(O)CCc1ccccc1)CCc1ccccc1,i,3.83e-08,-0.2%,/,i
